Cruzain Triton = blocks cruzain activity in presence of Triton detergent. 0.43% of 200,000 active. Potency, µM, for inactives: max response, negative = inhibition, actives largely listed as inhibitors. AID 1478. P25779. purified cruzain, Z-FR-AMC fluorescence, 0.01% Triton; active = well fitted curve in the direction sought with a large enough effect; inconclusive = small, poorly fitted or top-dose-only effect, or another doubt; inactive = no such curve, though single readings can be large; an effect the other way counts as inactive or inconclusive;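 also: plate controls were neutral wells for no effect and buffer without enzyme for full effect; nearly all actives have a fitted effect of over 40% in size; top concentration of the series not given in the record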
Target sequence (P25779 123-467 limits assumed): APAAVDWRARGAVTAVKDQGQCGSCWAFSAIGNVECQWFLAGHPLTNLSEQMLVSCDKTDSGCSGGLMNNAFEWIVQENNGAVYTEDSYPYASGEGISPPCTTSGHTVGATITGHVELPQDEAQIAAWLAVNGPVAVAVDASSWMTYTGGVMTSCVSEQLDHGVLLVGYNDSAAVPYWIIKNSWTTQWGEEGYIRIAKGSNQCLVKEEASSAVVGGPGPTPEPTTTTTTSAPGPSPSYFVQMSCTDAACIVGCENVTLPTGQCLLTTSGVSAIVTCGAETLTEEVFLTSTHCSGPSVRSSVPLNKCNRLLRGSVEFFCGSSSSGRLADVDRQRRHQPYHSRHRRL
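Purified cruzain (1.5 nM final) was preincubated with compounds for 15 min at room temperature in 100 mM sodium acetate pH 5.5, 5 mM DTT, 0.01% Triton X-100. Reaction started with 2 uM Z-FR-AMC; AMC fluorescence change over 60 s gave activity.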
RE007 growth inh = less growth of the S. pombe RE007 Vpr strain | S. pombe RE007 Vpr strain, BacTiter-Glo ATP luminescence, 24 h; control for the full effect not named in the record | Potency, µM (top dose mostly 92.2 µM), for inactives: at the top dose activity change, negative = less growth | 0.21% of 360,000 active; active = well fitted falling curve with a large enough effect; inconclusive = small, poorly fitted or top-dose-only effect; inactive = no such curve, though single readings can be large or run the other way;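 also: % is scaled to controls: 0 for no effect and ±100 for the full control effect; nearly all actives have a fitted effect of over 50% in size; the assay follows cell death caused by Vpr and the record does not say whether a fall means rescue or toxicity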
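Fission yeast strain RE007, carrying one chromosomally integrated HIV-1 vpr copy, was seeded at OD 0.01 in PMG+AL medium with 23 nL pinned compound. After 24 h at 30 °C and 99% humidity, viability was read by BacTiter-Glo luminescence.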
LASV entry inh = blocks Lassa virus binding to or entry into cells | Lassa virus pseudotype entry inhibition, cell reporter; control for the full effect not named in the record | Potency, µM (doses to about 37.9 µM), for the others: at the highest dose activity change, negative = inhibition, hits mostly inhibitors | 1.2% of 300,000 active | AID 540256; active means well fitted inhibition curve with a large enough effect; inconclusive means small, poorly fitted or top-dose-only effect, or effect the other way; inactive means flat fitted curve, though single readings scatter; tested in HEK293 cells; also: % is scaled to controls: 0 for no effect and ±100 for the full control effect; nearly all actives have a fitted effect of over 50% in size; luciferase read-out
SARS PLpro yeast = SARS-CoV PLP inhibition in yeast; S. cerevisiae expressing SARS-CoV PLpro, growth rescue; control for the full effect not named in the record; AID 485353; Potency, µM (series often up to 32.9 µM), for the others: at the top dose activity, positive = growth rescue; 0.19% of 330,000 active; also: 0% is about no effect; nearly all actives have a fitted effect of over 55% in size; growth read by luminescence after 48 h
2A StopGo = lowers the luciferase signal of an FMDV 2A StopGo reporter; Potency, µM (top dose mostly 57.9 µM), without a hit: at the highest dose signal change, negative = less light; human cells with a luciferase reporter of 2A StopGo recoding; control for the full effect not named in the record; AID 1159524; 1.2% of 410,000 active; active = well fitted falling curve with a large enough effect; inconclusive = small, poorly fitted or top-dose-only effect; inactive = no such curve, though single readings can be large or run the other way; tested in HEK293T cells; also: % is scaled to controls: 0 for no effect and ±100 for the full control effect; nearly all actives have a fitted effect of over 45% in size; luciferase light after 4 h
Cruzain noTriton = inhibitors of Trypanosoma cruzi cruzain without detergent | purified cruzain, Z-FR-AMC fluorescence, no detergent | Potency, µM, without a hit: max response, negative = inhibition, most hits filed as inhibitors | 2.3% of 200,000 active; active = well fitted curve in the direction sought with a large enough effect; inconclusive = small, poorly fitted or top-dose-only effect, or another doubt; inactive = no such curve, though single readings can be large; an effect the other way counts as inactive or inconclusive;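 also: plate controls were enzyme without inhibitor for no effect and buffer without enzyme for full effect; nearly all actives have a fitted effect of over 40% in size; top concentration of the series not given in the record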
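Purified cruzain at 1.5 nM, pre-incubated 15 min with compound at room temperature in 100 mM sodium acetate pH 5.5, 5 mM DTT, 0.00005% Triton X-100. Reaction started with 2 uM Z-FR-AMC; AMC fluorescence increase over 60 s gives rate.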
MARV entry inh = inhibitors of Marburg virus binding or cell entry | Marburg virus pseudotyped entry inhibition, cell reporter; control for the full effect not named in the record; about a third of the inactives were read at about 46 µM | Potency, µM (highest dose often 37.8 µM), for inactives: at the highest dose activity change, negative = inhibition, actives largely listed as inhibitors | 1.8% of 300,000 active; active = well fitted inhibition curve with a large enough effect; inconclusive = small, poorly fitted or top-dose-only effect, or effect the other way; inactive = flat fitted curve, though single readings scatter; tested in HEK293 cells; about a fifth of its hits are not listed in these tables; also: % is scaled to controls: 0 for no effect and ±100 for the full control effect; luciferase read-out
NS1 function inh = blocks influenza NS1 protein function; S. cerevisiae slowed by influenza A NS1, growth recovery by OD600; 0.4% of 270,000 active; AID 2326; Potency, µM (doses to about 46.1 µM), inactives show at the highest dose activity, positive = more growth; also: actives are rising curves; nearly all actives have a fitted effect of over 50% in size
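Read-out: OD600 growth recovery of NS1-expressing budding yeast. Cells grown overnight at 30C in -URA glucose medium, washed, resuspended and diluted 1:100 in 2% galactose assay medium, pH 6.0. Same strain lacking NS1 served as positive control.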
Active calls of the source: *; ? = inconclusive; . = no result given; & = joins results of further samples; [ ] = another dose, or the depositor's remark. Unless noted, calls follow the shape of the dose curve; as a rule, active means well fitted rising curve with a large enough effect; inconclusive means small, poorly fitted or top-dose-only effect; inactive means no such curve, though single readings can be large or run the other way. Potency is read from the fitted curve at half-maximal effect.

SMILES	Cruzain Triton	RE007 growth inh	LASV entry inh	SARS PLpro yeast	2A StopGo	Cruzain noTriton	MARV entry inh	NS1 function inh
NC(=O)CC(NC(=O)Cc1cccc2ccccc12)c1ccc(N2CCN(c3ccc(F)cc3)CC2)c([N+](=O)[O-])c1 (configuration not stated)	.	-1%	.	0%	-18%	.	.	?
CCCCn1c(O)c(C(C)=Nc2c(C)n(C)n(-c3ccccc3)c2=O)c(=O)[nH]c1=O	0.1%	3%	-8%	3%	4%	-5%	-2%	-4%
COC(=O)[C@@]1(Cc2ccc(OC)cc2)[C@H]2c3cc(C(=O)N4CCCC4)n(Cc4ccc(OC)c(OC)c4)c3C[C@H]2CN1C(=O)c1ccccc1	-1.7%&4.3%	.	?	8%	.	?	-44%	14%
O=C(CCN1C(=O)c2ccccc2S1(=O)=O)N1CCN(c2cccc(Cl)c2)CC1	.	-2%	-23%	-4%	?	.	-9%[46.1 µM]	.
CCC(=O)C1=C(c2ccc(F)cc2)N(C(=O)CC)n2c(nnc2C2CCCCC2)S1	2.0%	.	-3%[46.1 µM]	.	-20%	-4%	.	.
CC1=C(C(=O)OCc2ccccc2)C(c2ccccc2)NC(=O)N1 (configuration not stated)	.	1%	.	-4%	-17%	.	.	3%
O=C(N/N=C/c1ccc(O)c2ncccc12)c1cccc(Br)c1	.	?	?	-4%	-4%	.	13µM*	9%
O=C(CSc1nnc(CNc2ccc(F)cc2)o1)OC1CCCCC1	-3.9%	-1%	7%	-5%	1%	11%	-2%	-13%
Cc1ccc2c(c1)C(Cc1nc3ccccc3c(=O)n1-c1ccc(Br)cc1)C(=O)N2 (configuration not stated)	-3.5%	.	?	.	0%	?	?	.
Cc1cc(N2CCN(c3ccccc3)CC2)n2c(n1)nc1ccccc12	-1.8%	-2%	-3%	0%	-25%	?	13%	-46%
Nn1c(SCC(=O)Nc2ccccc2F)nnc1-c1cccs1	.	11%	8%	0%	-4%	.	8%[46.1 µM]	.
Cc1ccccc1C(=O)NC(CC(C)C)C(=O)Nc1ccc(F)c([N+](=O)[O-])c1 (configuration not stated)	-2.9%	18%	?	-8%	-16%	-6%	?	-5%
COC(=O)c1ccccc1NC(=O)CSc1nnc(-c2ccc(C)cc2)o1	0.5%	.	.	-17%	.	-9%	.	0%
COCc1nnc(NC(=O)CS(=O)(=O)c2ccc(C)cc2)s1	.	-5%	.	-4%	-5%	.	-1%[46.1 µM]	-2%
COc1ccc(N2CCN(C(=O)CSc3ncn[nH]3)CC2)cc1	.	11%	-8%[46.1 µM]	-8%	6%	.	?	.
CCOC(=O)Cc1cn2c(=O)cc(CSCC(=O)Nc3ccc(C)c(C)c3)nc2s1	-2.5%	22%	10%	2%	-18%	-7%	5%&5%	4%
COC(=O)c1ccc(/C=C2/C(=O)Oc3ccccc32)cc1	.	-8%	-12%	-1%	5%	.	?	0%
CN(Cc1ccccc1)C(=O)CSc1c2c(nc3ccc(Cl)cc13)CCCC2	-12%	.	?	.	-24%	-3%	?	.
CC(C)(C)NC[C@H](O)COc1cccc2c1CCCC2=O	3.4%&-1.4%	16%[18.4 µM]	.	.	-1%	11%&-10%	.	.
COc1ccc(C(=O)c2cc([N+](=O)[O-])ccc2N2CCN(C)CC2)cc1	.	-11%	-24%	0%	-16%	.	7.1µM*	1%
CCn1cc(C(=O)OCC(=O)OC2CC(C)CCC2C(C)C)c(=O)c2ccc(C)nc21 (configuration not stated)	-13%	0%	?	-24%	?	34%	?	-46%
CC(=O)c1ccc(N2CCN(C(=O)c3cc(C)on3)CC2)cc1	-6.3%	-10%	4%	5%	7%	-9%	?	?
Cc1c(-c2cc(C(=O)O)no2)cnn1C	.	4%	-8%	-1%	-17%	.	-4%[46.1 µM]	3%
Cc1ccc(NS(=O)(=O)c2cccc(C(=O)O)c2)c(C)c1	1.7%	-4%	7%	4%	.	1%	-3%	6%
Cc1ccc(-c2nc(=O)[nH]c3ccc(Br)cc23)cc1	.	-2%	3%	-4%	-12%	.	-14%	22%
Cc1ccc(S(=O)(=O)N(C)C)cc1NC(=S)NCCCn1ccnc1	.	8%	16%	-3%	-1%	.	4%	.
Cc1cccc(C)c1NC(=O)c1sc(Cl)nc1C	0.3%	1%	-3%	19%	-17%	11%	-23%	-1%
COc1ccc(-c2nn(-c3ccccc3)cc2/C=C2/SC(=S)N(CCC(=O)O)C2=O)cc1	.	3%	-16%	-1%	-17%	.	12%	3%
CC(C)(C)NC(=O)CN(Cc1ccc2c(c1)OCO2)C(=O)CCC(=O)Nc1nccs1	.	-6%	-19%	1%	1%	.	13%[46.1 µM]	3%
CN(CC(=O)Nc1ccccc1-c1ccccc1)Cc1ccccc1Cl	.	8%	-8%	-10%	-23%	.	11µM*	.
Cc1noc(NC(=O)c2ccccc2Cl)c1C#N	-5.4%	-2%	-20%	-5%	-13%	-3%	?	-9%
COc1ccc(OC)c(NC(=O)COC(=O)C2CCCCC2)c1	.	2%	29%	13%	-8%	.	14%	.
Brc1ccc(-c2nc(-c3ccncc3)no2)cc1	.	-6%	.	-4%	46%[activator]	.	.	2%
O=C(NCc1ccncc1)c1ccc(Cn2cc(C(F)(F)F)ccc2=O)cc1	-2.3%	3%	-4%	4%	-2%	-9%	7%	-21%
COc1ccccc1C(=O)COC(=O)Cn1c(C)csc1=O	.	2%	?	0%	48%[activator]	.	-10%	.
Cc1nnc2c(NCCC(C)C)nc3ccccc3n12	.	-24%	16%	0%	12%	.	24%	6%
O=c1c(-c2ccccc2)nc(-c2ccccc2)cn1O	-25%	11%	18%	?	29%	-28%	5%	-34%
Cc1nc2nc(NC(=O)c3ccco3)[nH]n2c(=O)c1C	.	1%	.	12%	-10%	.	.	-2%
O=C(CCN1CCN(c2ccc(Cl)cc2)CC1)Nc1ccccc1F	-3.1%	-5%	-14%	-1%	?	-3%	3%[46.1 µM]	-18%
COc1ccc(C(=O)N(Cc2ccccc2)c2ccc(C)cc2)cc1S(=O)(=O)N1CCOCC1	.	-2%	?	-7%	98%[activator]	.	-30%	.
CS(=O)(=O)N1CCC(C(=O)Nc2ccc(Cl)c(C(F)(F)F)c2)CC1	-1.4%	-2%	?	5%	.	-3%	-3%	-13%
COc1ccc2[nH]c(-c3cccc(F)c3)cc(=O)c2c1	0.0%&-0.8%	-2%	8%	-14%	56%[activator]	0%&0%	-5%	-10%
O=C(O)c1ccc2[nH]c3c(c2c1)CSCC3	-3.5%	0%	3%	-7%	-7%	-16%	26%	?
O=C(Cc1ccccc1)N1CCN(C(=O)c2ccc([N+](=O)[O-])cc2)CC1	.	10%	.	0%	-15%	.	.	1%
c1cncc(CSc2ccc(-c3cccnc3)nn2)c1	.	7%	-17%[46.1 µM]	-6%	1%	.	17%[46.1 µM]	.
CC1=Nc2ccccc2N=C(NC(=O)/C=C/C(=O)O)C1c1ccccc1 (configuration not stated)	.	-14%	?	-10%	9%	.	?	1%
CCn1cc2nc(SCC(=O)Nc3ccc(C)cc3C)n(Cc3ccc(C)cc3)c(=O)c2n1	0.0%	.	?	.	-10%	?	.	.
COC(=O)c1sccc1S(=O)(=O)Nc1ccc(S(N)(=O)=O)cc1	.	-6%	-2%	1%	2%	.	-2%	-1%
COc1ccc(CN2CCN(Cc3ccccc3)C(CCO)C2)cc1OC (configuration not stated)	.	20%	6%	1%	-13%	.	-16%	0%
N#Cc1cc2c(nc1SCC(=O)Nc1sc3c(c1C#N)CCC3)CCCC2	-1.5%	-13%	8%	4%	25%	?	8%[46.1 µM]	17%
CCOc1ccc(CCNC(=O)COC(=O)COc2cc(C)cc(C)c2)cc1OCC	.	-1%	2%	-9%	?	.	?	.
CCOC(=O)c1cccc(NC(=O)c2cnc3ccccc3n2)c1	2.1%	-22%	-27%	-1%	-24%	?	-11%	-41%
CCN(CC(=O)Nc1cc(Cl)ccc1C)C(=O)C1CCCCC1	.	5%	3%	3%	-20%	.	?	.
CCCCn1c(SCC(=O)Nc2cc(C(F)(F)F)cc(C(F)(F)F)c2)nnc1C(CC)N(C)C (configuration not stated)	-9.5%	-6%	?	14%	?	?	?	-9%
CCOc1cccc2sc(Nc3nc4ccc(NC(C)=O)cc4s3)nc12	6.4%	3%	?	3%	0%	?	10µM*	15%
CCCc1cnc2c(c1SCC(=O)Nc1c(C)cc(C)cc1C)c(=O)n(C)c(=O)n2C	0.8%	.	-4%[46.1 µM]	.	-10%	15%	.	.
Cc1cccc(NC(=O)CCSc2nc(C)cc(C)n2)c1	-0.6%	-5%	-11%	0%	8%	-2%	0%	-4%
CC(C)N1CCN(Cc2ccc(C#CC(C)(C)O)s2)CC1CCO (configuration not stated)	.	-2%	?	1%	-9%	.	9%[46.1 µM]	0%
CCOC(=O)c1c(C)[nH]c(C)c1S(=O)(=O)N1CCC(C(=O)NCc2ccc(OC)cc2)CC1	-0.1%	.	15%[46.1 µM]	.	13%	-2%	.	.
Cc1ccccc1-c1nc(CS(=O)(=O)CC(=O)NCc2ccc(F)cc2)c(C)o1	.	5%	.	4%	-10%	.	.	-11%

(more compounds)
SMILES	Cruzain Triton	RE007 growth inh	LASV entry inh	SARS PLpro yeast	2A StopGo	Cruzain noTriton	MARV entry inh	NS1 function inh
O=C(NCCN1CCOCC1)c1cn(CCc2ccccc2)nn1	1.0%	-6%	-2%	-2%	-4%	-1%	13%[46.1 µM]	3%
c1ccc(-c2ccc(OCCOCCn3cncn3)cc2)cc1	1.7%	-6%	5%	-6%	22%	13%	-10%[46.1 µM]	-47%
O=C(O)c1ccccc1Nc1ccc(OC(F)F)cc1	.	-21%	?	-3%	0%	.	?	.
Cc1ccc(CN2C(=O)C(=O)c3cc(Br)cc(C)c32)cc1	-2.7%	.	?	.	?	-29%	?	.
O=C(O)CN1C(=O)c2ccc(Oc3ccc4c(c3)C(=O)N(CC(=O)O)C4=O)cc2C1=O	.	3%	.	0%	-15%	.	.	1%
Cc1cc(C(=O)Nc2ccc3c(c2)OCCO3)co1	0.6%	10%	?	-7%	.	4%	-21%	-53%
